Screens from PubChem BioAssay.
Hsc70 ATP site – small molecules displacing fluorescent ligand from Hsc70 – biochemical, fluorescence polarization, primary screen (AID 568). displacement, % at 20 µM; hits with a dose series show IC50 in µM. 83,000 tested, under 10 active. Hsc70 fluorescence polarization, probe displacement; higher % means a stronger effect; strong numbers were not always called active;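 active means displacement above 50% without optical interference and an IC50 on retest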;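 further: ATPase domain with a fluorescein-tagged ATP probe; 0% = vehicle and 100% = excess ADP; read after one hour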
WNV NS2B-NS3 inh – inhibitors of West Nile virus NS2B-NS3 protease; z-score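 (tested at a level between 10 and 100 µM)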; AID 577; WNV NS2B-NS3 protease, fluorogenic substrate Ex360/Em465; stronger effect = lower value; 65,000 compounds, 0.18% hits;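 active means z-score at -3 or under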;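 further: score is relative to mean and spread of the compound wells of a plate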
Target sequence (P06935 1371-1501 limits assumed): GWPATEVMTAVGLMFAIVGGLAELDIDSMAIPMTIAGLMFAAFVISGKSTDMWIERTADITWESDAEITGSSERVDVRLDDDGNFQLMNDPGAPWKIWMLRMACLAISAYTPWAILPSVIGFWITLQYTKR
Target sequence (P06935 1502-1679 limits assumed): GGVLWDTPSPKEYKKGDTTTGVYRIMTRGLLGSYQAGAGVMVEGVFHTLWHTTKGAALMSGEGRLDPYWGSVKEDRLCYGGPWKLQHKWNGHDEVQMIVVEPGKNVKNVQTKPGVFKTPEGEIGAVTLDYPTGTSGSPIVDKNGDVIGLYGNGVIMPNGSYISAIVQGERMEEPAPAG
MT1-MMP promoter – MT1-MMP gene expression reporter suppression – cell-based, luciferase reporter, luminescence (AID 618); 87,000 compounds, 0.62% hits; calls from a first round at 10 µM; hits with a dose series show EC50 in µM; MT1-MMP promoter luciferase reporter cells, luminescence;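 active means over half of the reporter light lost at 10 µM or EC50 under 50 µM; inactive means the rest and hits that failed the dose series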;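 further: actives suppress MT1-MMP promoter-driven transcription so potencies describe inhibitors; HT1080 fibrosarcoma cells; overnight exposure; toxic or luciferase-blocking compounds were not removed from the actives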
An asterisk follows results filed as active; i = inactive; . = not tested or not shown.

Values run as follows: Hsc70 ATP site	MT1-MMP promoter	WNV NS2B-NS3 inh
- O=c1[nH]c(N2CCCCC2)nc2c1CCCC2
    0.7%	i	-0.14
- O=C(OC1CCCCC1)c1ccc(NC(=O)c2ccco2)cc1
    -0.3%	i	-1.1
- Cc1nc2nc(COc3ccccc3)[nH]n2c(=O)c1Cl
    -6.9%	i	-0.4
- CCN(CC)C(=O)COc1ccc(-c2ccccc2)cc1
    2.8%	i	0.22
- COCc1cc(C)n(CC(=O)Nc2ccccc2OC)c(=O)c1C#N
    2.2%	i	-1.3
- O=C(Cc1coc2ccc3ccccc3c12)N1CCN(c2ncccn2)CC1
    -1.9%	i	-0.76
- CCc1nc2ccccc2n1Cc1cc(=O)n2cc(C)ccc2n1
    7.6%	i	-0.5
- O=C1CC(N2CCC(Cc3ccccc3)CC2)C(=O)N1CCc1ccccc1 (stereo not given)
    -0.4%	i	.
- COc1ccc(N2CCCn3c2nc2c3c(=O)n(CCN3CCOCC3)c(=O)n2C)cc1
    3.0%	i	0.04
- CCc1nc2sc3ccccc3c(=O)c2c(=O)n1Cc1ccco1
    -3.6%	i	0.55
- O=S(=O)(N1CCCCC1)N1CCN(CC(O)COc2ccc3cc(Br)ccc3c2)CC1 (stereo not given)
    -4.7%	i	.
- CC(C)(C)n1ncc2c(=O)n(CC(=O)NCc3ccco3)cnc21
    5.9%	i	0.3
- O=C(NCCN1CCOCC1)c1ccccc1Oc1ccccc1
    4.4%	i	0.32
- CCOC(=O)c1cc2c(=O)n3cccc(C)c3nc2n(Cc2ccco2)c1=NC(=O)c1cccnc1
    -0.9%	i	0.49
- COC(=O)c1ccc(CSc2nnc(Nc3cccc(OC)c3)s2)o1
    0.0%	i	.
- COc1cc(NC(=O)C2CCCO2)c(OC)cc1NC(=O)c1ccccc1 (stereo not given)
    -3.7%	i	-1.6
- O=C(c1cccc(F)c1)N1CCC(O)(c2cccnc2)CC1
    -0.3%	i	.
- CCOc1ccc(C(=O)CN2CCN(S(=O)(=O)c3ccc(OC)cc3)CC2)cc1
    -5.9%	i	-0.31
- O=S(=O)(NCC1CCCO1)c1ccc(Br)s1 (stereo not given)
    1.0%	i	0.72
- CCOCCc1nnc(NC(=O)CN2C(=O)c3ccccc3C2=O)s1
    0.5%	i	-1.6
- CCc1cccc(NS(=O)(=O)c2ccc3c(c2)oc(=O)n3C)c1
    1.5%	i	-0.31
- CCC(=O)c1ccc(OCC(=O)O)cc1
    0.7%	i	-0.54
- O=C(CCc1ccccc1)Nc1ncc2c(n1)CCCC2=O
    -5.2%	i	-0.81
- CCCC(=O)Nc1nnc(-c2cccc(OCC)c2)s1
    -11%	i	0.44
- O=C(Nc1cc(C(F)(F)F)ccc1Cl)c1cc(C2CC2)on1
    3.7%	i	-0.28
- CN(C)S(=O)(=O)c1ccccc1C#N
    5.1%	i	1.2
- CCN1C(=O)c2cccc3c(NC(=O)C4CCCCC4)ccc1c23
    -1.7%	i	-0.8
- CC1CN(S(=O)(=O)c2cccc3nsnc23)CC(C)O1 (stereo not given)
    2.6%	i	.
- CCCCOc1ccc(NC(=O)c2cnc(C)cn2)cc1
    -4.9%	i	1.4
- COC1(OC)N=C(N)C2(C#N)C(c3ccc4c(c3)OCO4)C12C#N (stereo not given)
    7.4%	i	1.1

Full records, looked up by structure.
Record of COCc1cc(C)n(CC(=O)Nc2ccccc2OC)c(=O)c1C#N → Hsc70 ATP site = 2.2%; MT1-MMP promoter = i; WNV NS2B-NS3 inh = -1.3
Record of O=C(c1cccc(F)c1)N1CCC(O)(c2cccnc2)CC1 → Hsc70 ATP site = -0.3%; MT1-MMP promoter = i; WNV NS2B-NS3 inh = .

(list continues)
Values run as follows: Hsc70 ATP site	MT1-MMP promoter	WNV NS2B-NS3 inh
- Cc1ccc2nc(SCc3nnc(-c4cccs4)o3)[nH]c2c1
    1.5%	i	0.09
- O=C(Nc1ccc(Oc2ccc3ccccc3c2)cc1)c1ccco1
    -6.1%	i	.
- CCCn1c(=O)c2ccccc2n2c(SCC(=O)Nc3cc(C)on3)nnc12
    7.2%	i	-0.78
- O=C(O)Cn1c(-c2ccccc2)nc2ccccc21
    -7.1%	i	-1
- CCC(C)(C)NC(=O)CN(C(=O)CCC(=O)Nc1ccccn1)c1ccc(F)c(Cl)c1
    3.3%	i	.
- COC(=O)c1cc(-c2cccc(OC)c2)n[nH]1
    2.2%	i	-0.49
- O=C(c1ccco1)N1CCN=C1SCc1cccc(F)c1
    -1.5%	i	-0.14
- CCc1nnc(NC(=O)CSc2nc3ccccc3c(=O)n2CCCOC)s1
    -1.5%	i	.
- COc1nc(Oc2ccc(C(=O)OCC(N)=O)cc2)nc(N(C)C)n1
    -6.2%	i	-0.15
- Cc1cccc2cc3c(NC(=O)c4ccccn4)nn(C)c3nc12
    -8.8%	i	1.9
- CCOC(=O)c1cnc2ccc(OCC)cc2c1N1CCN(C)CC1
    -2.3%	i	-0.42
- O=C(O)CC1NC(=S)N(c2ccccc2)C1=O (stereo not given)
    -1.1%	i	.
- CCn1c(SCC(=O)NCCOC)nc2sc(C)c(C)c2c1=O
    -0.4%	i	-0.38
- O=C(NCCc1ccccc1)c1cc(-c2ccc3c(c2)OCO3)on1
    -5.4%	i	0.87
- O=C(NC1CCCC1)c1ccc(S(=O)(=O)N2CCOCC2)cc1
    1.2%	i	.
- Cc1oc(-c2cccc(Cl)c2)nc1CN1CCC(C(=O)NCc2ccco2)CC1
    4.0%	i	0.02
- CC1CN(CCc2ccccc2)c2nc3c(c(=O)[nH]c(=O)n3C)n2C1 (stereo not given)
    -3.0%	i	-1.1
- Cc1ccc(C)c(CSc2nnc(-c3cccnc3)n2N)c1
    -3.2%	i	0.09
- O=C(CCN1C(=O)C2CC=C(Cl)CC2C1=O)NC1CCCCC1 (stereo not given)
    5.6%	i	-0.5
- CCOC(=O)CC(=O)CSc1nc2sc(C)cc2c(=O)n1Cc1ccco1
    0.8%	i	2.4
- COc1cc2c(cc1OC)CN(CC(=O)Nc1cccc(C)c1)CC2
    0.4%	i	0.43
- O=C(NCCCNCCCNC(=O)c1ccccn1)c1ccccn1
    6.9%	i	-0.24
- CCc1nnc(NC(=O)CSc2nc3c(c(=O)n2C)SC(C)C3)s1 (stereo not given)
    -0.6%	i	-1.3
- COc1ccccc1CNC(=O)CN(c1ccc(C)cc1)S(=O)(=O)c1c(C)nn(C)c1C
    -1.6%	i	-0.21
- Cc1ccc(S(=O)(=O)NNC(=O)c2snnc2C)cc1
    0.8%	i	.
- CCOc1cc(C)c(C(C)C)cc1S(=O)(=O)N1CCN(C)CC1
    0.0%	i	-0.05
- CCn1c(=O)n(CC(=O)Nc2cccc(OC)c2)c(=O)c2ccccc21
    0.1%	i	0.56
- COCCCNC(=O)COc1cc(C)c(Cl)c(C)c1
    -4.3%	i	1.4
- COc1ccc(OC)c(Nc2nc(-c3ccc(O)c(O)c3)cs2)c1
    -1.0%	i	0.03
- Cn1c(=O)c2c(ncn2CC(=O)N2CCc3ccccc3C2)n(C)c1=O
    -9.5%	i	0.04
- O=C(NCC1OCCc2ccccc21)c1ccco1 (stereo not given)
    -7.3%	i	-0.63
- O=C(c1ccco1)N1CCN(S(=O)(=O)c2ccc(C3CCCCC3)cc2)CC1
    -2.6%	i	-0.23
- Cc1nc2ccccc2c2oc(C(=O)N3CCC(N4CCCCC4)CC3)cc12
    4.8%	i	-0.01
- O=S(=O)(c1cccc(-c2nnco2)c1)N1CCCC1
    -4.9%	i	-0.39
- CCCNS(=O)(=O)c1cc(Br)cc2c1N(C(=O)CC)CC2
    -3.1%	i	-0.38
- Cn1c(=Nc2ccc(N3CCOCC3)cc2)ccc2ccccc21
    -0.2%	i	-1.1
- Cc1cc2nnc(SCC(=O)OC(C)C)n2c2ccccc12
    1.3%	i	.
- O=C1CCCc2sc3c(c2N1)CCCCC3
    5.8%	i	0.05
- CC(C)(C)C1CCC2(CC1)C(C#N)=C(SCC(=O)NC1CCCCC1)NC(=O)C2C#N (stereo not given)
    3.9%	i	-1.6
- Cc1ccc2c(CSc3nc4ccccc4c(=O)n3CCCO)cc(=O)oc2c1C
    -1.9%	i	.
- Cc1ccc(C)c(S(=O)(=O)N2CCN(CC(=O)Nc3cc(C)on3)CC2)c1
    5.1%	i	-0.16
- Cn1c(SCC(=O)Nc2ccc(F)cc2F)nnc1-c1cccnc1
    -0.8%	i	-0.2
- Cc1nc(NC(=O)C23CCC(C)(C(=O)O2)C3(C)C)sc1C (stereo not given)
    2.0%	i	0.02
- COc1cccc(-c2cc(C(F)(F)F)nc(N3CCC(C)CC3)n2)c1
    -1.7%	i	0.31
- Cn1c(=O)c(Cc2ccccc2)c(O)c2ccccc21
    5.1%	i	.
- COc1ccc(-n2c(SCC(=O)N3CCOCC3)nc(O)c(Cc3ccccc3)c2=O)cc1
    1.3%	i	.
- CCOC(=O)N1CCN(/C=C(\C#N)c2nc3ccccc3s2)CC1
    -50%	i	-0.53
- CCOC(=O)C1(c2ccccc2)NC(c2ccccc2C)C2C(=O)N(c3ccc4c(c3)OCO4)C(=O)C21 (stereo not given)
    2.3%	i	.
- CN(C)S(=O)(=O)c1ccc(S(=O)(=O)N2CCN(CCC#N)CC2)cc1
    2.4%	i	0.47
- CC(=O)c1cccc(NC(=O)CN2C(=O)COc3ccc(Cl)cc32)c1
    -3.5%	i	-1.4
- CCC(C(=O)NCc1ccco1)n1nc(-c2ccc(OC)cc2)ccc1=O (stereo not given)
    8.0%	i	-0.66
- Cc1ccc(S(=O)(=O)N2CCOCC2)cc1C(=O)NC1CCCCC1
    3.1%	i	-0.35
- Cc1ccc(C)n1-c1ccc(C(=O)NCC2CCCO2)cc1 (stereo not given)
    -2.8%	i	-0.1
- O=C(CSc1nnnn1C1CCCCC1)Nc1ccc2c(c1)OCO2
    -8.9%	i	0.22
- Clc1ccc(OCc2nnc(SCc3nc4ccccc4[nH]3)n2Cc2ccco2)cc1
    -25%	i	-0.4
- CCOc1ccc(C2/C(=C(/O)c3ccc(OC)cc3)C(=O)C(=O)N2c2cc(C)on2)cc1OC (stereo not given)
    1.9%	i	-0.14
- Fc1ccc(C2CC(c3ccccc3)n3ncnc3N2)cc1 (stereo not given)
    1.0%	i	0.35
- N#Cc1nc(-c2ccco2)oc1N1CCC(Cc2ccccc2)CC1
    -1.3%	i	.
- C1CSC2(N1)C1CC3CC(C1)CC2C3 (stereo not given)
    7.8%	i	-0.05
- CCOP(=O)(OCC)C(C)(C)NC(=O)c1cc([N+](=O)[O-])cc([N+](=O)[O-])c1
    -2.2%	i	.

New compounds follow
Values run as follows: Hsc70 ATP site	MT1-MMP promoter	WNV NS2B-NS3 inh
- Cc1cc(NC(=O)C2CC(c3ccccc3Cl)=NO2)no1 (stereo not given)
    0.7%	i	.
- Cc1ccc(-n2c(CSc3nc(C)cc(C)n3)nnc2SCC(=O)Nc2nccs2)cc1
    -2.7%	i	-0.43
- Cc1ccc(C)c(N2CCN(C(=O)c3cc4sccc4n3C)CC2)c1
    -2.6%	i	-0.53
- Cn1c(SCC(=O)NC(=O)NCc2ccco2)nnc1-c1ccccc1
    5.7%	i	.
- CCn1cc(C(=O)NCc2ccco2)c(=O)c2cc(F)c(N3CCN(C(=O)c4ccco4)CC3)cc21
    4.0%	i	0.49
- COc1ccc(NC(=O)Nc2ccccc2F)cc1
    1.1%	i	.
- O=C(COC(=O)CCc1ccc(S(=O)(=O)N2CCOCC2)cc1)Nc1ccc(Cl)cn1
    -4.4%	i	-0.45
- COC(=O)c1sc(NC(=O)CSc2nc3cccnc3n2C2CCCCC2)nc1C
    -7.9%	i	0.28
- CN1CCN(C(=O)CCn2nc(-c3ccccc3)c3ccccc3c2=O)CC1
    3.9%	i	-0.81
- Cn1c(=O)c2c(O)cc(=O)n(-c3ccccc3)c2n(C)c1=O
    -3.8%	i	-0.04
- Cc1cc2ncn(C(=O)c3ccc4c(c3)OCO4)c2cc1C
    6.9%	i	-0.23
- O=c1c2ccccc2[nH]c(=S)n1CCN1CCC(=C(c2ccc(F)cc2)c2ccc(F)cc2)CC1
    -2.8%	i	-0.58
- CC1CN(C2CCN(C(=O)c3ccccc3)CC2)CC(C)O1 (stereo not given)
    -0.3%	i	-0.03
- Cc1c(C(=O)O)nnn1-c1ccccc1
    -2.9%	i	-2.2
- COc1cc(/C=C/c2cc(OC(C)=O)c3ccccc3n2)c(OC(C)=O)c([N+](=O)[O-])c1
    -0.7%	i	.
- O=C(Nc1c(C(=O)Nc2ccc3c(c2)OCCO3)cnn1-c1ccccc1Cl)c1ccco1
    -0.2%	i	-0.07
- COc1cccc(C(=O)Nc2nnc(C(C)C)s2)c1
    5.9%	i	-1.3
- COc1ccc(C(CC(=O)O)NC(=O)c2ccco2)cc1OC (stereo not given)
    1.8%	i	-0.24
- O=C(COc1ccccc1)Nc1ncc2c(n1)CCCC2=O
    -6.1%	i	-1
- O=C(CN1CCN(S(=O)(=O)c2ccc(F)cc2)CC1)Nc1ccc2c(c1)OCO2
    -2.7%	i	1.1
- COc1cc(OC)cc(C(=O)n2nc(C)cc2C)c1
    -5.3%	i	.
- CCOC(=O)c1cc(-c2ccccc2)n(CC(=O)O)c1C
    -1.0%	i	-0.71

Only part of the results is shown, so the mix of outcomes need not match the whole.
